Bioassay records from PubChem.
eIF4H FP inh – human eIF4H binding inhibitors, primary screen, translation initiation inhibitor project, biochemical, uHTS, fluorescence polarization | Eukaryotic translation initiation factor 4H (Homo sapiens), Q15056 | eIF4H fluorescence polarization binding assay | inhibition, % at 35 µM | 290,000 tested, 0.94% active;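 active means 50% or more with normal probe brightness, or confirmed in later tests; about a fifth of its hits are not listed in these tables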;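 further: calls also rest on retests at 20 µM and on dose response follow-up; 0% = protein and probe with vehicle and 100% = probe without protein; strong numbers were not always called active; many hits fall short of the cut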
UUG fidelity – modulators of yeast start codon fidelity, primary screen, whole organism, S. cerevisiae, single point, plate reader | S. cerevisiae UUG-firefly luciferase reporter, luminescence/redox ratio | activity score, % at 18.7 µM | 350,000 tested, 0.13% active;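 active means replicate mean at a twofold rise or more, about +100% in these data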;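 further: firefly luciferase made from a UUG start codon reports start codon fidelity; reporter light over untreated wells divided by growth signal over untreated wells; some hits fall short of that in this replicate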
MT1-MMP act inh – blockers of MT1-MMP proenzyme processing, primary screen, HT1080 RFP-PRO-GFP cells, GFP/RFP fluorescence; GFP/RFP ratio change, % at 20 µM; 360,000 tested, 0.061% active; GFP/RFP ratio fluorescence, overnight; percent of plate control window, DMSO zero; AID 651647, 2012; Matrix metalloproteinase-14 (Homo sapiens), P50281;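 active means GFP/RFP ratio change of at least 30% with cell ATP level not reduced by more than half and red fluorescence within 50% of control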; further: strong numbers were not always called active
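Assay system – RFP-PRO-GFP reporter HT1080 cells · Compound dosing – single dose of 20 µM compound, 1% DMSO final · Incubation – overnight compound exposure at 37 °C · Measure – GFP/RFP fluorescence ratio · Benchmarks – DMSO wells and RFP-L50D-GFP cells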
CSC inhib – cancer stem cell viability inhibitors, primary screen, luminescence. cancer stem cell-like cells viability. inhibition, % at 7.5 µM. 300,000 tested, 1.1% active. AID 2717, 2010;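 active means mean at 75% or more and at least half the replicates too; tested in HMLE shEcad cells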;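 further: 0% = median of negative and 100% = median of positive control wells; the first replicate is given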
PABP polyA inh – PABP poly(A) RNA binding inhibitors, primary screen, biochemical, fluorescence polarization, uHTS. Polyadenylate-binding protein 1 (Homo sapiens), P11940. inhibition, % at 35 µM. 290,000 tested, 1% active;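 active means 50% or more with normal probe brightness, or confirmed in later tests; about a fifth of its hits are not listed in these tables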;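 further: calls also rest on retests at 20 µM and on dose response follow-up; controls were probe without protein and protein plus probe with vehicle; some compounds called inactive have numbers as strong as hits; many hits fall short of the cut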
Rce1 inhib – yeast Rce1p protease inhibitors, primary screen, biochemical, fluorescence, cell-free homogeneous; 290,000 tested, 0.27% active; AID 2563, 2010; yeast membranes, quenched prenylated peptide cleavage fluorescence; calls only; CAAX prenyl protease 2 (Saccharomyces cerevisiae (strain ATCC 204508 / S288c)), Q03530;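 active means fall in fluorescence gain of 50% or more versus controls, with final raw signal at or below 3038400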;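 further: plate controls were neutral control wells for no effect and wells lacking membranes for full effect; tested at 10 µM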
HIV Env fusion – inhibitors of HIV-1 Env-driven cell-cell fusion, primary screen, HeLa-JRFL effector, CEM21 target cells, luciferase | 360,000 tested, 1.1% active | inhibition, % at 12.3 µM | AID 651610, 2012;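 active means mean replicate inhibition score of at least 50 and every replicate individually at or above 50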;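 further: 0% = plate neutral controls and 100% = maraviroc near 300 nM; one replicate is shown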
MT1-MMP act inh RFP – further read-out of MT1-MMP act inh, marked with its call; RFP signal change, %; measured here: RFP expression control read;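 0 = vehicle wells; hits needed this value within 50% of zero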
* hit, by the source's call; i = inactive; · = no result given.

SMILES	eIF4H FP inh	UUG fidelity	MT1-MMP act inh	MT1-MMP act inh RFP	CSC inhib	PABP polyA inh	Rce1 inhib	HIV Env fusion
O=C(CN1CCN(S(=O)(=O)c2ccccc2)CC1)NCCc1ccccc1	-10	-6	0	-1	-7	8	i	-3
CCCCc1nc2sc3c(=O)[nH]cnc3c2c2c1CCCC2	3	·	-5	1	-11	-10	i	5
COc1cc(C2NC(=O)NC(C)=C2C(=O)OCC2CCCCC2)cc(Cl)c1O (configuration not stated)	-8	13	2	-3	-1	3	i	7
O=C(Cn1ccc([N+](=O)[O-])n1)c1ccccc1	-5	·	2	2	·	-4	i	-14
Cc1ccc(NC(=O)N[C@@H](CC(C)C)C(=O)O)c(C)c1	-6	·	-1	3	-16	1	i	-4
CCOc1ccccc1OCCOc1ccccc1CC	-2	-18	4	0	4	-13	i	·
COc1ccc(NC(=O)N(C)C[C@H]2Oc3ccc(NC(=O)Nc4c(C)noc4C)cc3C(=O)N([C@H](C)CO)C[C@H]2C)cc1	·	-28	3	0	-5	·	·	-5
COc1ccc(NC(=O)CN(C)C(=O)c2cccc(S(=O)(=O)Nc3ccc(OC)cc3)c2)cc1	·	-11	7	2	·	·	i	-9
COc1ccc(-[n+]2c(C)cc(/C=C3\Sc4ccccc4N3C)cc2C)cc1	0	·	-277	-30	56	-2	i	34
COc1ccccc1N1CCN(C(=O)C2=CC=CN3CCS(=O)(=O)N=C23)CC1	·	-22	-1	3	1	·	·	·
CC(Sc1nncn1C)C(=O)Nc1ccc(S(N)(=O)=O)cc1 (configuration not stated)	-7	-11	-6	3	·	-8	i	-1

Arranged by number of heavy atoms (smallest number first): eight of the compounds above.
SMILES	eIF4H FP inh	UUG fidelity	MT1-MMP act inh	MT1-MMP act inh RFP	CSC inhib	PABP polyA inh	Rce1 inhib	HIV Env fusion
O=C(Cn1ccc([N+](=O)[O-])n1)c1ccccc1	-5	·	2	2	·	-4	i	-14
Cc1ccc(NC(=O)N[C@@H](CC(C)C)C(=O)O)c(C)c1	-6	·	-1	3	-16	1	i	-4
CCOc1ccccc1OCCOc1ccccc1CC	-2	-18	4	0	4	-13	i	·
CCCCc1nc2sc3c(=O)[nH]cnc3c2c2c1CCCC2	3	·	-5	1	-11	-10	i	5
COc1ccc(-[n+]2c(C)cc(/C=C3\Sc4ccccc4N3C)cc2C)cc1	0	·	-277	-30	56	-2	i	34
COc1ccccc1N1CCN(C(=O)C2=CC=CN3CCS(=O)(=O)N=C23)CC1	·	-22	-1	3	1	·	·	·
COc1ccc(NC(=O)CN(C)C(=O)c2cccc(S(=O)(=O)Nc3ccc(OC)cc3)c2)cc1	·	-11	7	2	·	·	i	-9
COc1ccc(NC(=O)N(C)C[C@H]2Oc3ccc(NC(=O)Nc4c(C)noc4C)cc3C(=O)N([C@H](C)CO)C[C@H]2C)cc1	·	-28	3	0	-5	·	·	-5

Entries of single compounds, quoted from the list. Values in the order: eIF4H FP inh, UUG fidelity, MT1-MMP act inh, MT1-MMP act inh RFP, CSC inhib, PABP polyA inh, Rce1 inhib, HIV Env fusion
Shown for COc1ccc(NC(=O)N(C)C[C@H]2Oc3ccc(NC(=O)Nc4c(C)noc4C)cc3C(=O)N([C@H](C)CO)C[C@H]2C)cc1 : ·, -28, 3, 0, -5, ·, ·, -5
Shown for COc1ccc(NC(=O)CN(C)C(=O)c2cccc(S(=O)(=O)Nc3ccc(OC)cc3)c2)cc1 : ·, -11, 7, 2, ·, ·, i, -9
